# High-throughput results (PubChem)
# Pol kappa inh – inhibitors of human DNA polymerase kappa; Q9UBT6; purified Pol kappa, fluorescent DNA synthesis assay, 10 min; Potency, µM (doses to about 107 µM), for the others: at the top dose activity, negative = inhibition, actives largely listed as inhibitors; 400,000 tested, 0.53% active; further: on the % scale 0 is the no-effect control and ±100 the full control effect
#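 Activity was followed as the change in fluorescence between reads at 0 and 10 min after starting the reaction with 50 nM substrate. Beforehand, 10 nM polymerase had been preincubated with compound for 15 min at room temperature.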
# Anesthetic bind – candidate novel general anesthetic via apoferritin binding; apoferritin/1-aminoanthracene competitive binding, fluorescence; Potency, µM (titrated, usually from 77.5 µM), inactives show at the highest dose activity change, negative = displacement, hits mostly inhibitors; 350,000 tested, 0.074% active; AID 485281; further: on the % scale 0 is the no-effect control and ±100 the full control effect; nearly all actives have a fitted effect of over 20% in size
# Target sequence (P02791 2-175 limits assumed): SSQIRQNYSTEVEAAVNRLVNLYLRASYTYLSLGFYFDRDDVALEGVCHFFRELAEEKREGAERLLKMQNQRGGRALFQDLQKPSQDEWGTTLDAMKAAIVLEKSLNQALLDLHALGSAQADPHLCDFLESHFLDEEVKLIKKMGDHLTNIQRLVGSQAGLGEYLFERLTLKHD
#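 10 uM apoferritin + 50% sat. 1-AMA, PBS; cpd 10 min RT; Ex380/Em535 endpoint; normalized to free probe vs complex; 4-param Hill fit; propofol titration as pos. ctrl.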
# G9a block – inhibitors of human histone lysine methyltransferase G9a | Q96KQ7 | G9a H3K9 monomethylation, AlphaScreen, 2 h | Potency, µM (titrated, usually from 102 µM), for the others: at the top dose activity, negative = inhibition, hits mostly inhibitors | 350,000 tested, 8.8% active | AID 504332; further: on the % scale 0 is the no-effect control and ±100 the full control effect; nearly all actives have a fitted effect of over 75% in size
# Target sequence (Q96KQ7 913-1193 limits assumed): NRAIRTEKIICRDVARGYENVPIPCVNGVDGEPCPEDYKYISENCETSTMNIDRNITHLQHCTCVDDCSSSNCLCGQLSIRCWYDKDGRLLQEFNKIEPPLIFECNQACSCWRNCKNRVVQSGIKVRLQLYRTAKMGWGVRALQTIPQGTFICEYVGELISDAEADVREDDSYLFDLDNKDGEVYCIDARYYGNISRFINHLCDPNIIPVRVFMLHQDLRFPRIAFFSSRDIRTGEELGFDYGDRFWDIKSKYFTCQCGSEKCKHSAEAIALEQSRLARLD
#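 Signal arises when biotinylated H3K9 peptide, once monomethylated, bridges streptavidin donor and antibody-captured acceptor beads. Enzyme at 20 nM was preincubated 15 min with test compounds; peptide 500 nM and SAM 20 uM then reacted for 2 h.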
# POLB inh – DNA polymerase beta (human) inhibition. P06746. Pol beta primer extension/strand displacement, fluorescence kinetic. Potency, µM (highest dose often 114 µM), inactives show top-dose activity change, negative = inhibition, usual class: inhibitors. 340,000 tested, 1.3% active. AID 485314; further: on the % scale 0 is the no-effect control and ±100 the full control effect
#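 10 nM enzyme + cpd, 15 min RT; start with substrate 50 nM final; read 0 min and after 10 min RT. Corrected, normalized data; 4-parameter Hill curve fit.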
# POLH inh – DNA polymerase eta (human) inhibition | Q9Y253 | recombinant Pol eta, fluorescent DNA replication assay | Potency, µM (titrated, usually from 114 µM), without a hit: top-dose activity change, negative = inhibition, hits mostly inhibitors | 390,000 tested, 1.2% active; further: on the % scale 0 is the no-effect control and ±100 the full control effect
#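 Fluorescent replication assay: 50 nM final substrate added after a 15 min room-temperature compound preincubation with 10 nM enzyme. Signal taken at 0 min and again at 10 min.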
# APE1 inh – blocks human APE1 abasic DNA cleavage; P27695; 350,000 tested, 0.35% active; Potency, µM (highest dose often 65.8 µM), for the others: top-dose activity change, negative = inhibition, actives largely listed as inhibitors; recombinant APE1, TAMRA/BHQ-2 abasic DNA cleavage fluorescence; AID 2517;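 further: plate controls were vehicle for no effect and reference inhibitor for full effect; nearly all actives have a fitted effect of over 55% in size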
# Target sequence (P27695 whole entry, looked up): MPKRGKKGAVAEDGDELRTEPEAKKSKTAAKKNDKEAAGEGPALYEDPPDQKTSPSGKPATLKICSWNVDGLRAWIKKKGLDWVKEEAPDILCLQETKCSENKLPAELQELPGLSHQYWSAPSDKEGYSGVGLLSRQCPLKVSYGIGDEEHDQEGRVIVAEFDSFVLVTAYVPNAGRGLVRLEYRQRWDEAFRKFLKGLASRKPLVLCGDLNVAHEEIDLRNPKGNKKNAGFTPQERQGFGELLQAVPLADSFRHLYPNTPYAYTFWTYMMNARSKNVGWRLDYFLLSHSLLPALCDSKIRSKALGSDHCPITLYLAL
#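 Readout is kinetic fluorescence (ex 525, em 598 nm) from cleavage of 50 nM TAMRA/BHQ-2 THF abasic duplex by 0.75 nM APE1, compound added 15 min beforehand at RT.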
# BLM inh – Bloom syndrome helicase (human) inhibition; P54132; Potency, µM (titrated, usually from 56.1 µM), for the others: top-dose activity change, negative = inhibition, hits mostly inhibitors; recombinant BLM DNA unwinding, fluorescence dequenching; 350,000 tested, 0.2% active;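 further: plate controls were vehicle for no effect and no enzyme for full effect; nearly all actives have a fitted effect of over 35% in size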
# Pol iota inh – inhibitors of human DNA polymerase iota | Q9UNA4 | Pol iota fluorescent replication assay, 10 min | Potency, µM (series often up to 115 µM), for inactives: at the highest dose activity, negative = inhibition, hits mostly inhibitors | 390,000 tested, 1% active | AID 588590
#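 Pol iota at 10 nM preincubated 15 min with compounds at room temperature; reaction started with fluorescent substrate, 50 nM final. Fluorescence read kinetically at 0 and 10 min; buffer-only wells as negative control.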
# * = called active by the depositor; ? = inconclusive; . = no result given; & = joins results of further samples; [ ] = dose if it differs, or a comment. The call rests on the fitted dose curve; in most records, active means well fitted curve in the direction sought with a large enough effect; inconclusive means small, poorly fitted or top-dose-only effect, or another doubt; inactive means no such curve, though single readings can be large; an effect the other way counts as inactive or inconclusive. Potency means the concentration at half of the fitted maximal effect. These rows are one share of the data, so the mix of outcomes need not match the whole.
SMILES,Pol kappa inh,Anesthetic bind,G9a block,POLB inh,POLH inh,APE1 inh,BLM inh,Pol iota inh
O=C(CSc1ccc2nnc(-c3ccccn3)n2n1)NCc1ccc2c(c1)OCO2,-10%,-6%,-10%[59 µM],-18%,-3%,-8%,-2%,10%
CCOc1ccccc1NC(=O)c1sc2ncn(CC(=O)N3CCOCC3)c(=O)c2c1C,-15%,-10%,-10%,10%,1%,-14%,5%,25%
CCOc1cc(CN2CCSCC2)ccc1O,-22%,-10%,?,-10%,1%,-4%,1%,16%
Cc1ccc(OCc2nnc(SCC(=O)Nc3ccc4c(c3)OCO4)n2C)cc1,-5%,-1%,0%[59 µM],-1%,-6%,-4%,1%,2%
CC(=O)Nc1ccc(S(=O)(=O)NNc2cccc(C)c2)cc1,-4%,-21%,1.1µM*,0%,-14%,33%,-4%,-12%
COc1ccc(N2C(=O)/C(=C\c3ccco3)N=C2SCC(=O)NC(C)(C)C)cc1Cl,-11%,-20%,?,-12%,-16%,22%,-11%,-22%
Cc1ccsc1C(=O)OCC(=O)Nc1nnc(-c2ccccc2)o1,-11%,.,3%[0.501 µM],.,6%,-2%,.,56%[activator]
Cn1nnc(NC(=S)NC(=O)/C=C/c2ccco2)n1,?,7%,10µM*,?,18µM*,-2%,-1%,?
CCC(=O)Nc1ccc(-c2nn3c(C)nnc3s2)cc1C,-4%,-12%,-22%[12.7 µM],0%,-5%,5%,-5%,9%
Fc1cccc(Cl)c1CSc1ccc2nnc(-c3ccccn3)n2n1,0%,-14%,-16%[59 µM],2%,-15%,-3%,-12%,91%[activator]
Nc1c(-c2ccccc2)cnn1C1CCS(=O)(=O)C1 (stereo unspecified),-11%,4%,3%,2%,-19%,2%,-4%,13%
Cc1ccc(C(NC(=O)Cc2cccs2)C(=O)Nc2ccc(C(C)C)cc2)cc1 (stereo unspecified),-12%,-11%,?,-9%,-7%,.,-2%,-26%
O=C(NCCSc1ccc(Br)cc1)c1ccc2nc[nH]c2c1,-37%,-17%,-26%,40µM*,22µM*,-24%,-11%,20µM*
Cc1cccc(Nc2nc(N)nc(CN3CCN(C)CC3)n2)c1,-12%,6%,12%[12.7 µM],-1%,-9%,10%,4%,3%
CO/N=C/c1ccc(N2CCCC2)c([N+](=O)[O-])c1,-8%,-16%,40µM*,24%,-10%,0%,-2%,55%[activator]
CCOC(=O)C(=O)C1=C(N2CCOCC2)/C(=C\c2ccc(F)cc2)CC1,1%,-12%,?,-13%,-19%,-5%,-8%,-9%
COc1ccc(NC(=O)COC(=O)C2CCC(C(C)(C)C)CC2)c([N+](=O)[O-])c1 (stereo unspecified),0%,0%,?,2%,?,1%,-12%,-5%
Cc1ccc(C(=O)/C=C/c2ccco2)c(O)c1,-15%,-3%,28µM*,?,?,2%,-6%,-11%
CSc1nc(Oc2ccccc2)c2sccc2n1,-2%,-11%,113%[activator][59 µM],11%,-12%,0%,-6%,6%
N#CCSc1nc2ccccc2c(=O)n1-c1ccccc1,-15%,-4%,5%[59 µM],-22%,-2%,-2%,-3%,-17%

# The closing 4 compounds of the section above are carried over, then new ones follow.
SMILES,Pol kappa inh,Anesthetic bind,G9a block,POLB inh,POLH inh,APE1 inh,BLM inh,Pol iota inh
COc1ccc(NC(=O)COC(=O)C2CCC(C(C)(C)C)CC2)c([N+](=O)[O-])c1 (stereo unspecified),0%,0%,?,2%,?,1%,-12%,-5%
Cc1ccc(C(=O)/C=C/c2ccco2)c(O)c1,-15%,-3%,28µM*,?,?,2%,-6%,-11%
CSc1nc(Oc2ccccc2)c2sccc2n1,-2%,-11%,113%[activator][59 µM],11%,-12%,0%,-6%,6%
N#CCSc1nc2ccccc2c(=O)n1-c1ccccc1,-15%,-4%,5%[59 µM],-22%,-2%,-2%,-3%,-17%
Cc1ccc(-n2cc(-c3ccccc3)c3c(N4CCN(C)CC4)ncnc32)cc1,-5%,-6%,45µM*,-5%,-8%,-1%,-8%,-2%
O=C(Nc1ccccc1[N+](=O)[O-])C1COc2ccccc2O1 (stereo unspecified),-2%,?,.,5%,-1%,-4%,-1%,116%[activator]
COc1c(F)c(F)c(C(=O)Nc2cccc(Cl)c2N2CCOCC2)c(F)c1F,-5%,-24%,-26%[59 µM],9%,-2%,1%,2%,7%
Nc1ccc2nc(SCc3ccc([N+](=O)[O-])cc3)sc2c1,-10%,?,40µM*,-18%,-12%,-8%,-7%,40%[activator]
Cc1ccc(-c2nc(SCC(=O)NCCN3C(=O)CSC3=O)[nH]c2-c2ccc(C)cc2)cc1,.,-16%,45µM*,-2%,.,?,-10%,.
CC(=O)Nc1cccc(-c2csc(NCc3ccco3)n2)c1,0%,-14%,-20%[2.33 µM],3%,-17%,-5%,-3%,?
COc1ccc(OCc2cc(C(=O)N(Cc3nccn3C)C(C)C)no2)c2ccccc12,2%,-14%,50µM*,4%,-15%,21%,-7%,19%
CCC(C)c1ccc(S(=O)(=O)N2CCN(CC(O)COCC3CCCO3)CC2)cc1 (stereo unspecified),?,.,10µM*,.,-11%,-9%,.,8%
COc1cccc(NC(=S)N(CCCN2CCOCC2)Cc2cn(C)c3ccccc23)c1,-5%,-4%,-22%[59 µM],31%,-20%,13%,-1%,127%[activator]
Cc1ccc(NC(=O)CSc2nccn2Cc2ccccc2)cc1C,-7%,?,?,5%,-24%,-11%,2%,-13%
CCc1cc(OCCN(C)C)ccc1Cl,-7%,-4%,-131%[59 µM],-13%,-3%,18%,-13%,85%[activator]
CC(C)(C)OC(=O)NCCc1nnc(SCc2ccccc2)o1,-2%,-10%,-4%,30%,-14%,-2%,-2%,4%
O=C(c1ccco1)N1CCN(C(=O)c2ccc(-c3ccc(Cl)cc3)o2)CC1,-1%,.,?,.,-20%,-13%,.,58%[activator]
c1ccc(OCCSc2nnc3sc4ccccc4n23)cc1,-2%,126%[activator],7%,46%[activator],-3%,-5%,-1%,18%
Cc1ccccc1N=C/C=C1/C=C(c2ccccc2)OC(C)(C)O1,-10%,-3%,22µM*,-2%,-5%,11%,0%,0%
Cn1c(-c2ccc(F)cc2)cnc1NCc1ccc(F)cc1F,-6%,-8%,.,2%,-10%,11%,1%,-6%
O=C(O)c1cccc(NS(=O)(=O)c2cccc3cccnc23)c1,-7%,0%,-19%,-1%,13%,-6%,2%,0%
O=C(CSc1nncs1)Nc1nnc(-c2ccccc2)o1,-2%,-2%,?,-1%,-25%,-12%,-3%,15%
Cc1cc(C)n(CC(=O)N/N=C/c2ccccn2)n1,-5%,-3%,0.71µM*,9%,-14%,-15%,3%,381%[activator]
N#Cc1nc(-c2ccccc2F)oc1NCc1cccc2c1OCO2,-9%,-8%,?,9%,-4%,-2%,-11%,?

# Some values from the entries so far.
# O=C(CSc1ccc2nnc(-c3ccccn3)n2n1)NCc1ccc2c(c1)OCO2 | Pol kappa inh = -10%
# c1ccc(OCCSc2nnc3sc4ccccc4n23)cc1 | Pol kappa inh = -2%
# CC(=O)Nc1cccc(-c2csc(NCc3ccco3)n2)c1 | APE1 inh = -5%
# O=C(c1ccco1)N1CCN(C(=O)c2ccc(-c3ccc(Cl)cc3)o2)CC1 | POLH inh = -20%

# Next records:
SMILES,Pol kappa inh,Anesthetic bind,G9a block,POLB inh,POLH inh,APE1 inh,BLM inh,Pol iota inh
Fc1ccc(NCc2n[nH]c(=S)n2Cc2ccccc2)cc1,-4%,-7%,7.9µM*,3%,-9%,25%,-2%,72%[activator]
O=C(N/N=C/c1ccncc1)c1nc2ccccc2c(=O)[nH]1,-4%,4%,-40%,-7%,-4%,2%,-2%,-9%
COc1cc(-c2nc3ccccn3c2/N=C/c2cccc(F)c2)ccc1O,-8%,111%[activator],18µM*,23%,-16%,2%,-11%,45%[activator]
Cn1c(=O)n(C)c2cc(N3CCCCC3)c(NC(=O)c3c(F)cccc3F)cc21,-8%,-5%,?,16%,0%,.,-4%,-6%
Cn1cccc1Cc1nnc(SCC(=O)Nc2ccc3c(c2)OCO3)n1CCc1ccccc1,8%,-14%,40µM*,-29%,-4%,-7%,-4%,7%
CC(C)c1c(O)nc(SCCN(C)C)[nH]c1=O,0%,-4%,0%[59 µM],5%,-9%,1%,1%,11%
COc1ccc(CN2C(=O)c3cccnc3C2=O)cc1S(=O)(=O)N(C)Cc1ccco1,-3%,-14%,.,19%,-20%,2%,-1%,22%
Cc1ccc(Cc2c(C)nc3nc(SCC(=O)NCc4ccco4)nn3c2C)cc1,-26%,?,.,22µM*,?,-6%,-18%,?
COc1ccc(-c2nc3cc(C)ccn3c2NCc2ccc3c(c2)OCO3)cc1,-11%,-5%,?,3%,-9%,3%,-19%,-9%
CN(C)CCN(C(=O)c1ccc2ccccc2c1)c1nc2cc3c(cc2s1)OCCO3,-9%,-16%,40µM*,-2%,-16%,25%,0%,34%[activator]
COC(=O)Cc1[nH]n(-c2nc3ccccc3s2)c(=O)c1C(C)=O,-11%,-10%,?,-9%,-10%,11%,-11%,?
Cc1cccc(N2CCN(C(=O)c3ccc(CS(=O)Cc4cccc(Cl)c4)o3)CC2)c1C (stereo unspecified),-17%,-5%,?,0%,?,-18%,-11%,23%
COc1ccc(C(=O)NN/C(C)=C/C(=O)c2ccccc2)cc1,2%,-15%,.,0%,-22%,-14%,1%,32%[activator]
CCN(CC)CCN(C(=O)c1ccc2c(c1)CCCC2)c1nc2ccc(OC)cc2s1,1%,-16%,45µM*,1%,?,30%,-11%,24%
Cc1nnc(N/N=C/c2c(O)n(-c3cccc(C(F)(F)F)c3)c(=O)c3ccccc23)[nH]c1=O,.,40%[activator],?,-17%,.,4%,-21%,.
CC(=O)Nc1ccc(-c2nnc(SCC(=O)NCc3ccco3)n2C)cc1,-3%&-5%,0%,3.2µM*,14%,-8%,14%,-4%,6%&-3%
CN(C)Cc1nc2c(c(=O)[nH]1)C(C)(C)Cc1ccccc1-2,-9%,-12%,?,11%,1%,3%,3%,0%
CCOC(=O)c1cccc(NC(=O)N2CCOCC2)c1,2%,-2%,3%,1%,-11%,3%,-1%,7%
Cc1ccc(N(Cc2ccccc2)C(=O)c2ccc(F)cc2)cc1,-4%,-2%,20µM*,79%,-11%,6%,0%,19%
COc1ccc(NC(=O)CSc2nc(-c3ccccc3)[nH]c2-c2ccccc2)cc1OC,-32%,-5%,?,-8%,-7%,.,-10%,?
COc1cccc(OCC(=O)NNC(=O)c2cccs2)c1,-5%,-10%,1%[59 µM],21%,10%,-6%,0%,12%
CCOc1ccccc1NC(=O)CSc1nc2nc(-c3cccs3)cc(C(F)(F)F)c2c(=O)[nH]1,-31%,?,-5%,?,79µM*,0%,-7%,?
CCCS(=O)(=O)c1c(S(=O)(=O)CCC)c2c(C)cccn2c1C(=O)N/N=C/c1cc(O)cc(O)c1,-15%,-20%,-33%,3%,-4%,-6%,-12%,0%
